KCNQ2 enhance: potentiators of rat KCNQ2 potassium channel | actives 0.54% (n = 310,000) | Potassium voltage-gated channel subfamily KQT member 2 (Rattus norvegicus), O88943 | AID 2239, 2010 | CHO-K1 KCNQ2, FluxOR thallium flux fluorescence; active compounds read high | B-score at 10 µM;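 active means fluorescence ratio B-score at least 3 SD of library B-scores, with initial fluorescence B-score within 3 SD, cut at about 5.3 in these data; same plate scores as AID 2156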;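 further: B-score of peak minus minimum over baseline fluorescence ratio after K+ and Tl+ stimulus; positive B-score means potentiation of KCNQ2 with more thallium influx and brighter signal; only the inactives scoring about 0 or higher are listed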
Target sequence (O88943 whole entry, looked up): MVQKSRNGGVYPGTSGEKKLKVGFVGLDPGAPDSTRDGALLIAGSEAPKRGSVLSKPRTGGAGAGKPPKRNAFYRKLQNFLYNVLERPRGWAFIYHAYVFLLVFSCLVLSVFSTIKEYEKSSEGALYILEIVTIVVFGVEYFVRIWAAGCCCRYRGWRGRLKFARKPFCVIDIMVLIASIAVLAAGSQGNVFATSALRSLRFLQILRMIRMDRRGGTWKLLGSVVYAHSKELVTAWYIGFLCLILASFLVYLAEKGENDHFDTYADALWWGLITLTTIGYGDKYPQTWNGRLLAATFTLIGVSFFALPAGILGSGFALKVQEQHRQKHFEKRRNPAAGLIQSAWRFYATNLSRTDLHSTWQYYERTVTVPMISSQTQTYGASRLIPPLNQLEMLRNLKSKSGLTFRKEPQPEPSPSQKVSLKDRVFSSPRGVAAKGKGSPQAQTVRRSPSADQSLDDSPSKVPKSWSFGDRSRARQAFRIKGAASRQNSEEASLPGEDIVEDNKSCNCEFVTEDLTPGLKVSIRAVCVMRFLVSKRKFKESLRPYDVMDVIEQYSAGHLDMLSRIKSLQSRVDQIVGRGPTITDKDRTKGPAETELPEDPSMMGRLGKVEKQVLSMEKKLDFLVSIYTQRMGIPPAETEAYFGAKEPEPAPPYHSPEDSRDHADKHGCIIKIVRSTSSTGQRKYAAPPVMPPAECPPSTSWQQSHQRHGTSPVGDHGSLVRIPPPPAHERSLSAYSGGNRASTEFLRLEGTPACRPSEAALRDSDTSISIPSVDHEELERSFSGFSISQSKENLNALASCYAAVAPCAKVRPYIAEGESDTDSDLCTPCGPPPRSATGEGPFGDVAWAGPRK
KCNQ2 enhance baseline: recorded beside KCNQ2 enhance, whose call it bears; B-score; compound at 10 µM; measured here: initial fluorescence intensity artifact check;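 brightness before thallium and not channel activity; 0 = typical well and far values either way flag optical interference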
Numbers without * were called inactive. A portion of the library; rates above refer to the full screens.

compound,KCNQ2 enhance,KCNQ2 enhance baseline
CSc1nnc(C)c(=O)n1COC(=O)c1ccccc1,1.1,-0.18
CC1CN(c2ccc([N+](=O)[O-])cc2Cl)CCN1S(C)(=O)=O (configuration not stated),0.49,-0.83
C=CCn1c(=O)c2c(nc3n2CCS3)n(C)c1=O,0.8,0.55
CC1=Nn2c(nnc2-c2ccccn2)SC1,0.59,0.07
Cc1nn(CCOc2ccc(Br)cc2)c(C)c1[N+](=O)[O-],1.9,-2.2
Cc1nn(C2CCS(=O)(=O)C2)c(C)c1C=O (configuration not stated),1.6,-0.74
Cc1nc(C)n(CCNS(=O)(=O)c2ccc(C)c(C)c2)n1,1.2,-0.07
Cc1cc(C)c2cc(CN(CCO)Cc3nnnn3Cc3ccccc3)c(=O)[nH]c2c1,0.74,0.84
O=C1Cc2ccccc2C(=O)N1OCc1ccc(Cl)cc1Cl,0.23,0.07
CC1CCCCN1C(=O)NC12CC3CC(CC(C3)C1)C2 (configuration not stated),0.3,-0.56
Cc1ccccc1NC(=O)c1ccc(S(=O)(=O)C(F)F)cc1,1.9,0.91
COC(=O)C1C(c2ccc(OC)cc2)C(C(=O)OC)S(=O)(=O)C(CCN2CCCCC2)S1(=O)=O (configuration not stated),0.06,0.23
CN1/C(=C\C=C(/C#N)C(=O)Nc2ccccc2F)C(C)(C)c2ccccc21,0.19,0.14
COc1cc2c(cc1OC)CN(C(=O)c1sc(-c3cnccn3)nc1C)CC2,0.09,0.08
CCCCNC(=O)CNC(=O)c1nn(-c2ccc(OC)cc2)c(=O)c2ccccc12,1.3,0.05
CN(Cc1cccc2cnccc12)C(=O)c1cc(COc2ccc(F)cc2Cl)on1,0.89,1.7
CCCC(=O)Nc1cccc(NC(=O)c2ccc3c(c2)OCCO3)c1,1.4,-0.46
COc1ccc(-n2cc(CNC(C)c3ccncn3)c(-c3cccc(F)c3)n2)cc1 (configuration not stated),0.14,0.37
O=C(CC1CCCCC1)NCc1ccco1,0.2,0.78
Cc1ccc(NC(=O)CN(C)C(=O)Cn2ccsc2=N)cc1,1.5,0.47

Copied from the list:
CSc1nnc(C)c(=O)n1COC(=O)c1ccccc1 in KCNQ2 enhance → 1.1
Cc1ccccc1NC(=O)c1ccc(S(=O)(=O)C(F)F)cc1 in KCNQ2 enhance baseline → 0.91
O=C1Cc2ccccc2C(=O)N1OCc1ccc(Cl)cc1Cl in KCNQ2 enhance → 0.23
CCCCNC(=O)CNC(=O)c1nn(-c2ccc(OC)cc2)c(=O)c2ccccc12 in KCNQ2 enhance baseline → 0.05
Cc1nc(C)n(CCNS(=O)(=O)c2ccc(C)c(C)c2)n1 in KCNQ2 enhance baseline → -0.07
COc1ccc(-n2cc(CNC(C)c3ccncn3)c(-c3cccc(F)c3)n2)cc1 (configuration not stated) in KCNQ2 enhance → 0.14

Three entries already listed, sorted by their value in KCNQ2 enhance baseline, descending:
Compound,KCNQ2 enhance baseline
Cc1cc(C)c2cc(CN(CCO)Cc3nnnn3Cc3ccccc3)c(=O)[nH]c2c1,0.84
COc1ccc(-n2cc(CNC(C)c3ccncn3)c(-c3cccc(F)c3)n2)cc1 (configuration not stated),0.37
CCCCNC(=O)CNC(=O)c1nn(-c2ccc(OC)cc2)c(=O)c2ccccc12,0.05

More results:
compound,KCNQ2 enhance,KCNQ2 enhance baseline
O=C(O)Cc1ccc(Oc2ncc(C(F)(F)F)cc2Cl)cc1,0.28,0.03
CCCN1C(=O)SC(CC(=O)Nc2ccccc2C)C1=O (configuration not stated),0.93,-1.9
O=C(CSCc1ccccc1Cl)N/N=C/c1ccco1,1.2,0.36
CCc1nnc(NC(=O)C2CC(=O)N(C3CCCC3)C2)s1 (configuration not stated),0.84,-0.07
CC(C)(C)C1CCC(C(=O)NNC(=O)c2ccncc2)CC1 (configuration not stated),0.6,0.03
O=C(c1ccc(F)c(F)c1)N1CCCc2ccccc21,0.6,-0.11
COc1cc2ccccc2cc1C(=O)OCC(=O)N1CCOCC1,0.43,0.04
CC(C)(Oc1ccc(Cl)cc1)C(=O)Nc1ccc(S(=O)(=O)Nc2ncccn2)cc1,0.27,1.2
Cc1c(C(=O)Nc2ccccn2)oc2ccccc12,0.41,0.6
Cc1ncc(CO)c(/C=N/Nc2cccc(Cl)n2)c1O,1.2,0.72
N#Cc1nc(-c2ccccc2)oc1N1CCCCC1,0.19,-0.01
CC(C)NC(=O)COC(=O)c1ccc(Cl)c(S(=O)(=O)N2CCCC2)c1,0.48,0.73
Cc1cccc(C)c1NC(=O)c1sccc1SCC#N,0.62,0.93
CC(C(=O)NC1=NCCS1)(C(F)(F)F)C(F)(F)F,0.23,-1.1
CN(C(=O)CN1C(=O)S/C(=C\c2ccc(Cl)cc2)C1=O)C1CCS(=O)(=O)C1 (configuration not stated),0.22,-0.06
O=C1OC(c2ccc(F)cc2)=N/C1=C\C=C/c1ccccc1,0.56,0.18
Cc1ccc(C(=O)N/N=C\c2ccc(-c3ccc(Cl)c(Cl)c3)o2)cn1,0.37,0.05
CC(=O)c1ccccc1NC(=O)CSc1nnc(Cc2csc(C)n2)o1,0.79,-2.3
Cn1c(-c2ccccc2Br)n[nH]c1=S,1.1,-0.9
CC(C)CNc1nc(N)c([N+](=O)[O-])c(N2CCCCCC2)n1,1.7,-0.39
N=C1C(c2nc3ccccc3c(=O)[nH]2)=C(O)CN1CCO,1.2,0.5
O=S(=O)(Nn1c(O)c(C=C2N=c3ccccc3=N2)sc1=S)c1ccccc1,2.1,0.18
CC(C)C(C(=O)NCc1ccco1)N(CC1CCCO1)C(=O)CNS(=O)(=O)c1ccc(F)cc1 (configuration not stated),0.01,-0.85
CC1(C)CC(=O)c2sc(NC(=O)CN3CCCCC3)nc2C1,0.88,-1.1
Cc1ccc(C(=O)Nc2cccc(NC(=O)c3ccc(C)c([N+](=O)[O-])c3)n2)cc1[N+](=O)[O-],0.31,-0.1
COC1CCN(C(=O)C2CCC(=O)N(C3CCCCCC3)C2)CC1 (configuration not stated),0.16,0.56
O=C(CN1C(=O)C2C3CC(C(Br)C3Br)C2C1=O)N1CCOCC1 (configuration not stated),0.19,-0.68
CCN(CCNC(=O)C1CCN(S(=O)(=O)c2cccc3cccnc23)CC1)c1ccccc1,1.2,-0.01
Cn1ccnc1SCC(=O)Nc1ccc2c(c1)OC(F)(F)O2,0.21,0.64
COC(=O)C1=C(N)Oc2cc(C)n(Cc3cccnc3)c(=O)c2C1c1cccc(OC)c1OC (configuration not stated),1.4,-0.96
CCCC(=O)Nc1ccc(NCc2ccc(C)s2)cc1,22*,-1.3*
COc1ccccc1/C=C/C=N/n1c(-c2ccccc2)n[nH]c1=S,0.05,0.66
COc1ccc(N2C3=[N+](CCCC3)CC2(C)O)cc1 (configuration not stated),0.72,-0.83
Cc1ccc(-c2c(C#N)c(N)n(-c3ccccc3)c(=O)c2C#N)cc1,0.31,0.16
CC1=NN(c2ccccc2)C(=O)/C1=C\C=C\c1ccccc1,0.83,-1.3
Cc1ccc(NC(=O)CSc2ccc(-c3ccc(-n4cccn4)cc3)nn2)c(C)c1,0.49,-0.2
C=CCNCC(=O)Nc1ccccc1SCC(=O)Nc1ccsc1C(=O)OC,0.84,1.8
COc1cc(C(c2c(C)[nH][nH]c2=O)c2c(C)[nH][nH]c2=O)cc([N+](=O)[O-])c1O,0.85,-0.42
COc1ccccc1Nc1nc(NCCCCO)nc(N2CCCC2)n1,0.57,0.97
Cc1ccc(C2=N/C(=C\N3CCCCC3)C(=O)O2)cc1,0.4,2.9
COc1ccc(N(C(=O)COc2ccccc2)C2C=CS(=O)(=O)C2)cc1 (configuration not stated),0.22,-0.43
COc1ccccc1N(CC(=O)N1CCc2ccccc2C1)S(C)(=O)=O,1.4,0.2
Cc1cc(O)c(C(C)C)cc1N=Cc1cc([N+](=O)[O-])ccc1O,0.06,-0.32
Cc1ccc(-c2nn(-c3ccccc3)cc2C(=O)Nc2ccc(C(=O)O)cc2)cc1,0.36,0.47
CC1CCC2(CC1)NC(=O)N(CC(=O)c1ccc[nH]1)C2=O (configuration not stated),0.05,0.81
CCOC(=O)c1cc2c(ccn2C)n1Cc1cc(C)ccc1C,0.03,-0.01
O=C(CC1C(=O)NCCN1CC1CCCCC1)NCc1cc(F)ccc1F (configuration not stated),0.28,-1.5
N#Cc1c(C(F)(F)F)cc(-c2ccc(Cl)c(Cl)c2)nc1SCCN1CCOCC1,0.12,0.87
O=C(CCN1CCc2ccccc21)c1ccc2c(c1)OCCO2,0.36,0.38
O=C1c2ccccc2C(=O)N1CCCc1c[nH]c2ccc(Cl)cc12,0.22,-0.02
COc1ccc(CNC(=O)c2cccs2)cc1,0.41,-0.71
COc1ccc(OC)c(-n2cnc3cc(C(=O)NCCCN4CCOCC4)ccc32)c1,2,-1.1
COC(=O)c1cc(Nc2cc(C)nc3ncnn23)cc(C(=O)OC)c1,0.07,-0.54
COc1ccc(CNC(=O)CN(Cc2ccc(OC)cc2)C(=O)CCC(=O)Nc2ccccn2)cc1,1.9,-0.15
NC(=O)CCSC(=S)N1CCOCC1,0.14,0.16
COc1ccc(CNC(=O)C(NC(C)=O)C(=O)Nc2ccc(OC)cc2)cc1 (configuration not stated),2.8,0.72
Cc1nc2cc(-c3ccc(Br)cc3)[nH]n2c(=O)c1Cl,1.9,0.63
S=C(NCCCc1ccccc1)Nc1ccc(Cl)cc1,1.2,-0.86
Cc1cc(C)c(NC(=O)C2CSCCS2)c(C)c1 (configuration not stated),6.5*,-0.95*
CCCn1c(CCC(=O)O)ccc1-c1cccs1,0.97,0.35

More structures follow:
compound,KCNQ2 enhance,KCNQ2 enhance baseline
C=CCNC(=O)COC(=O)CCC(=O)c1cccs1,0.12,-0.61
O=C(COc1ccccc1)NC(NC(=S)Nc1ccccc1C(=O)O)C(Cl)(Cl)Cl (configuration not stated),2.3,-2.3
Cn1c(CNC(=O)C2CCC(=O)N(CCc3cccc(F)c3)C2)nc2ccccc21 (configuration not stated),1.4,1.6
O=C(Nc1ccc2sccc2c1)c1cccc(N2C(=O)CCC2=O)c1,1.2,0.05
O=C(O)c1ccc2ccc3ccccc3c2c1,0.95,-0.65
CCCCOc1ccc(-c2nnn(CC(=O)NCCc3c[nH]c4ccccc34)n2)cc1,0.25,-1.6
N#Cc1nc(-c2ccc(F)cc2)oc1N1CCN(C(=O)c2ccco2)CC1,0.32,-0.89
O=C(CNS(=O)(=O)c1cccc2nsnc12)NC1CCCCC1,0.28,0.48
O=C(NCc1ccc(Cl)cc1)c1ncn[nH]1,0.03,1.9
O=C(c1ccco1)N1CCN(C(=O)c2cccc3c2C(=O)N(Cc2cccnc2)C3)CC1,0.67,2.1
O=C(CC1C(=O)NCCN1Cc1ccc(F)c(F)c1)NCCn1cccn1 (configuration not stated),0.44,0.36
O=C(CSc1ncnc2ccccc12)NCc1ccc2c(c1)OCO2,1.4,0.92
Cc1ccc(CCNS(=O)(=O)c2ccc3c(c2)NC(=O)C(C)C(=O)N3)cc1 (configuration not stated),0.5,-0.99
Cc1ccc(NS(=O)(=O)c2ccc3c(c2)NC(=O)CCS3)c(Br)c1,1.3,1.3
Cc1cc(C(=O)Cn2nc(C(=O)O)c3ccccc3c2=O)c(C)n1-c1ccc(F)cc1,1.1,0.5
O=C(Oc1ccccc1-c1csnn1)c1cccs1,1.3,-0.3
CC1CCC(Nc2nnnn2-c2ccccc2)CC1 (configuration not stated),2,-0.25
O=C(NC12CC3CC(CC(C3)C1)C2)C1CC(=O)N(c2ccccc2)C1 (configuration not stated),0.42,-0.74
Cc1nc2nc(SCC(=O)N3CCOCC3)nn2c(C)c1Cc1c(F)cccc1Cl,1.5,-2.4
COc1ccccc1NC(=O)CSc1nnc(C)s1,0.34,1.2
C=CCOC(=O)C1=C(C)N(C)C(=O)NC1c1cc2c(cc1Br)OCO2 (configuration not stated),0.74,-0.47
CCOc1cc(/C=C/c2nc3ccccc3c(=O)[nH]2)ccc1O,0.53,2.2
COc1cc(CN(C)Cc2cc(=O)n3ccsc3n2)ccc1OC(F)F,1.7,-2.7
COc1ccccc1-c1cn[nH]c1-c1ccc(OCC(=O)NN)cc1O,0.17,-0.03
COc1ccc(-n2c(=S)[nH]c3ccccc3c2=S)cc1,1.1,-0.55
CC(=O)c1cnc(Nc2ccccc2)s1,1.1,0.85
CCCC(=O)Nc1cc(-c2nc3ncccc3o2)ccc1C,0.79,-2.1
O=C(Cn1cnc(S(=O)(=O)N2CCCCC2)c1)N1CCN(c2ccc([N+](=O)[O-])cc2)CC1,0.13,-0.01
O=C(C[n+]1ccccc1)c1ccc(-c2ccccc2)cc1,3,-3.4
CN(C)c1ccc(NC(=O)Nc2ccc3snnc3c2)cc1,1.1,-0.49
Cc1ccc(NC(=S)N2CCN(C(=O)C3CCCO3)CC2)cc1 (configuration not stated),0.25,-1.1
S=C(NCCCN1CCOCC1)N(Cc1ccccc1)Cc1ccccc1,0.19,-1.4
CCOc1cc(NC(=O)c2ccco2)c(OCC)cc1NC(=O)Cc1ccc(OC)c(OC)c1,1,-0.18

Screening results from PubChem BioAssay.
